# Mtb betalactam = beta-lactam sensitization of Mtb H37Rv | hit rate 0.27% among 330,000 | inhibition, % at 25 µM | M. tuberculosis H37Rv growth with meropenem, percent inhibition; hits of this screen are not shown here;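 active means about 74% or more and at least 40 points above the plate without the antibiotic, then above 30% in a dose series; inconclusive means first-round hits that could not be retested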;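 further: growth measured after seven days incubation then overnight dye step; 0% = bacteria only wells and 100% = bacteria with antibiotic; twin plates without the antibiotic show which effects depend on it; some results filed as inactive read as strong as hits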
# Arbovirus inh = arbovirus infection inhibition. AID 1251. hit rate 0.37% among 200,000. arbovirus infection cell-based antiviral screen. inhibition, % at 10 µM;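 active means inhibition from about 30%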;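 further: bluetongue infection of BSR cells; cell survival read as ATP light after 72 h; 0% = infected wells without compound and 100% = uninfected wells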
# YopH PTP inh = inhibitors of Yersinia enterocolitica YopH tyrosine phosphatase | fluorescence Ex485/Em525 | inhibition, %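 (about 10 µM by stock and volumes)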 | hit rate 0.16% among 140,000 | AID 898;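 active means inhibition of 50% or more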;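 further: controls were vehicle for no effect and minimum signal wells for full effect; inactives centre near -20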
# Mtb growth = M. tuberculosis H37Rv growth inhibitors, H37Rv strain (AID 1626); M. tuberculosis H37Rv growth inhibition; higher % means a stronger effect; inhibition, % at 10 µM; hits with a dose series show IC50 in µM; hit rate 0.95% among 220,000;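 active means confirmed in a dose series; inconclusive means inhibition above 80% but not taken into the dose series; inactive means below 80% or under 30% at every dose of the series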;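 further: bacteria incubated seven days before Alamar blue readout; 0% = bacteria only wells and 100% = bacteria with antibiotic wells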
# RecA intein inh = Mtb RecA intein splicing inhibition; cell-free RecA intein splicing, fluorescence; inhibition, %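 (about 9 µM by stock and volumes)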; hit rate 0.75% among 290,000; AID 2221; in the data active means inhibition above about 30%; inconclusive means no clear call, values can overlap the other calls;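 further: 0% = vehicle wells and 100% = reference inhibitor control wells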
# Target sequence (P9WHJ3 whole entry, looked up): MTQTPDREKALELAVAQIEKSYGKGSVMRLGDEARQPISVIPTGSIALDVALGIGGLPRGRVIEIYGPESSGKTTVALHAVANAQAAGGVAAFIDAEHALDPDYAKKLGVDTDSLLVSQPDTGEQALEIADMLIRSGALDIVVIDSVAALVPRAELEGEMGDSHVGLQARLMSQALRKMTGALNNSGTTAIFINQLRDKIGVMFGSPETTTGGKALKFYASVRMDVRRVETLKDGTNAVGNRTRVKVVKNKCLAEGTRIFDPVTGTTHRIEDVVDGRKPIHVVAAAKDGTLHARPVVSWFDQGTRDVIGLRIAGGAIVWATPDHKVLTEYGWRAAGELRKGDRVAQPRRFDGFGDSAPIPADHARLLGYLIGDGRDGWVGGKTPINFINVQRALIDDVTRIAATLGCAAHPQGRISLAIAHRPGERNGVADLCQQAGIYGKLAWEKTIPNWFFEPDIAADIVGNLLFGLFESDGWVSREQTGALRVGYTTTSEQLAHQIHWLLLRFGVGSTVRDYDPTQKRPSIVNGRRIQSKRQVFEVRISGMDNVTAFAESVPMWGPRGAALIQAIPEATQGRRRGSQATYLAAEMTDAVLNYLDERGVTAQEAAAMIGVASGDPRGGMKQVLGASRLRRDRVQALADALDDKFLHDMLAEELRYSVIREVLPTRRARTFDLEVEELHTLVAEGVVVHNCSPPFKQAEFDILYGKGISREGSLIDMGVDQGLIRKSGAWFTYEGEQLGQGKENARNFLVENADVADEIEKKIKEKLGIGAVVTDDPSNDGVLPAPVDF
# Arbovirus inh repeat = further read-out of Arbovirus inh, marked with its call; inhibition, %; measured here: 10K subset replicate screen; many hits read low in the repeat;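 first of two repeat runs on a subset; 0% = infected and 100% = uninfected wells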
# An asterisk follows results filed as active; ? = inconclusive; . = no result given. Not all compounds are listed, so the mix of outcomes need not match the whole.
SMILES,Mtb betalactam,Arbovirus inh,YopH PTP inh,Mtb growth,RecA intein inh,others
CCC1COCCS(=O)(=O)N1Cc1ccc(C)cc1 (stereo not drawn),-11.3,.,.,.,1.7,
COc1ccc(CN2CCN(C(=O)CC(C)C)CC2)c(OC)c1OC,-6.7,6.1,-21.3,-7.6%,-3.5,
FC(F)(F)Oc1ccc(NC2=NCCCS2)cc1,13.2,.,.,.,-1.5,
COc1ccccc1NC(C)=O,-4.6,3.7,-29.4,7.8%,-0.1,
CC(=O)NC(=O)Nc1sc(=S)n(C)c1C,-6.3,0.0,-26.2,-7.8%,-1.6,
Cc1ccccc1-n1c(SCC(=O)N/N=C/c2sccc2C)nc2ccccc2c1=O,87.7,-16.8,-16.8,?,0.8,
CC(=O)c1ccccc1NC(=O)CSc1nnc2ccccn12,-4.7,5.4,-8.5,.,-0.4,
O=C(c1ccccc1Cc1ccccc1)N1CCN(S(=O)(=O)c2ccccc2)CC1,1.1,.,.,.,2.4,
Cc1nnc(NC(=O)c2oc3c(ccc4ccccc43)c2C)s1,1.5,10.3,-26.7,-0.7%,0.4,
Cc1nc2ccc(NC(=O)N3CCC(c4ccccc4)C3)cc2nc1C (stereo not drawn),57.0,-21.5,-5.2,11.9%,-1.3,
Cc1ccc(C(C(=O)NCc2ccccc2)N(Cc2cccs2)C(=O)c2ccc3c(c2)OCCO3)cc1 (stereo not drawn),12.0,-1.4,-28.2,4.7%,-0.3,
CCOC(=O)c1c(CN2CCN(c3ccccc3)CC2)oc2ccc(O)cc12,-1.1,-7.3,-16.6,9.6%,4.6,
COc1ccc(/C=C/C(=O)c2cc(Br)ccc2O)cc1OC,-0.8,3.1,.,5.3%,1.9,
CCn1cc(Cl)c(C(=O)NNC(=O)CCn2ccc([N+](=O)[O-])n2)n1,-3.0,.,.,.,-3.1,
CN1CCN(c2ccc(NC(=O)CSc3ccccc3)cc2F)CC1,-3.8,-0.2,-8.5,-14.3%,-2.3,
Cc1sc2ncnc(N/N=C/c3cccc(O)c3)c2c1C,36.6,3.6,-6.0,3.1%,-0.9,
COc1cccc(CNC(=O)CSC(=S)N2CCCC2)c1,2.4,.,.,.,1.2,
C(=N\Nc1nc2ccccc2s1)/c1ccccn1,100.6,.,.,33.4%,14.0,
CCN1C(=O)[C@H]2[C@@H](c3ccc(C)cc3)N3C(=O)N(c4ccc(C)cc4)C(=O)[C@@]3(CC)[C@H]2C1=O,-5.9,.,.,.,-4.0,
CC(C)CN(C(=O)COC(=O)COc1ccc2c(c1)CCC2)c1c(N)n(Cc2ccccc2)c(=O)[nH]c1=O,1.0,.,.,.,-3.0,

# Grouped by structure, those above containing a furan ring, fused or not.
SMILES,Mtb betalactam,Arbovirus inh,YopH PTP inh,Mtb growth,RecA intein inh,others
Cc1nnc(NC(=O)c2oc3c(ccc4ccccc43)c2C)s1,1.5,10.3,-26.7,-0.7%,0.4,
CCOC(=O)c1c(CN2CCN(c3ccccc3)CC2)oc2ccc(O)cc12,-1.1,-7.3,-16.6,9.6%,4.6,

# (further entries)
SMILES,Mtb betalactam,Arbovirus inh,YopH PTP inh,Mtb growth,RecA intein inh,others
COc1ccc(/C=N/NC(=O)c2nc(-c3ccccc3)n(-c3ccccc3)n2)cc1OC,3.9,-2.9,-16.1,0.7%,17.6,
CCn1c(SCC(=O)Nc2nonc2C)nnc1-c1ccco1,-3.1,-4.5,-37.2,-9.5%,1.1,
CC(C)(CO)CNC(=O)CCc1nnc(Cc2ccc(-c3ccccc3)cc2)o1,-4.4,-2.1,.,4.7%,0.1,
C=CCNC(=S)N1CCN(c2ncc(C(F)(F)F)cc2Cl)CC1,-3.7,.,.,8.9%,2.4,
Cc1ccc(NC(=O)c2ccc3c(c2)NC(=O)CS3)nc1,-12.7,.,.,.,-1.7,
COc1ccc(N(C)C(=S)Oc2ccc(C(=O)Nc3ccccc3)cc2)cc1,.,-2.7,-11.0,-8.4%,.,
Cc1cccc(/C=C/c2nc3ccccc3c(=O)n2Cc2ccccc2)c1,16.2,-3.1,-23.5,18.5%,3.4,
COc1cccc(-c2cc(C(F)(F)F)nc(-n3cccn3)n2)c1,-1.6,-6.2,-16.1,-0.6%,2.8,
Cc1cc(C(=O)NCCN2CCCCC2C)n(-c2ccccc2)n1 (stereo not drawn),3.4,4.7,-11.1,3.2%,-3.6,
Clc1ccccc1Cn1nnc2c(N3CCCC3)ncnc21,13.1,-10.1,-50.6,3.0%,2.6,
COc1ccc(-c2cc(C(=O)Nc3cccnc3)no2)cc1OC,7.7,.,.,.,-0.2,
NC1=C([N+](=O)[O-])C(c2ccc(F)cc2)C2=C(CCCC2=O)O1 (stereo not drawn),-3.6,5.2,-15.8,6.9%,-3.3,
Clc1ccc(-n2nnnc2CN2CCCCC2)cc1Cl,4.1,6.8,-32.3,13.3%,5.5,
COc1ccc([N+](=O)[O-])cc1-c1nc2ccccc2nc1-c1ccccc1,0.6,.,.,.,1.9,
O=C(CSc1nc(O)cc(=O)[nH]1)Nc1ccc2c(c1)CCC2,37.3,-4.5,-8.7,6.5%,4.3,
COC(=O)CCc1nc2ccccc2[nH]c1=O,4.8,7.7,8.7,-0.4%,-1.9,Arbovirus inh repeat=-1.3
CC#CCN1c2ccccc2[C@]23C[C@@H](C(=O)OC)N(C(=O)c4cc(C)oc4C)C2=NC(C(=O)OC)=C(C(=O)OC)[C@H]13,1.7,.,.,4.9%,8.5,
Cc1ccc(-n2c(Cl)c(Cl)[nH]c(=O)c2=O)cc1,-2.4,1.4,-23.5,-0.8%,0.3,
Cc1ccc(S(=O)(=O)CC(=O)Nc2nccs2)cc1,2.2,.,.,.,-0.9,
CC(=O)c1cccc(NC(=O)C2CCN(C(=O)c3ccccc3Cl)CC2)c1,1.6,.,.,.,-1.8,
CN(Cc1cnn(C)c1)S(=O)(=O)c1cccc([N+](=O)[O-])c1,5.0,0.2,.,3.5%,0.7,
COc1ccccc1N1CCN(C(=O)CSc2nnc3c4ccccc4n(CC(=O)O)c3n2)CC1,3.7,-7.1,-33.0,4.3%,-2.5,
O=C(Nc1ccc(C(=O)O)cc1)/C(=C\C=C\c1ccccc1)NC(=O)c1ccccc1Cl,10.5,.,.,.,1.1,
N#CCc1nnc2n1-c1ccccc1CCC2,1.4,-2.7,-7.3,-10.3%,3.2,
c1ccc(Nc2nnc(-c3cccnc3)s2)cc1,-4.6,.,.,.,-0.4,
COCCNC(=S)N(CCc1c(C)[nH]c2ccc(Cl)cc12)Cc1cccnc1,2.4,.,.,.,2.9,
O=C(Cn1nnc2ccccc2c1=O)NCCc1ccccc1,1.9,-8.8,-29.9,2.1%,-3.2,
N#CC1=C(N)OC2=C(C(=O)CCC2)C12C(=O)N1CCCc3cccc2c31 (stereo not drawn),11.4,10.1,-13.0,-0.1%,0.6,
O=C(NNC(=O)c1ccc([N+](=O)[O-])cc1)NC1CCCCC1,-1.2,.,.,-15.1%,-0.8,
Nc1cc2c(cc1C(=O)c1ccccc1)OCCO2,12.4,-0.8,-15.5,12.6%,3.2,
COc1ccc(-c2cc(C(=O)NCCCN3CCCC3=O)c3ccccc3n2)cc1,-4.1,.,.,.,-3.9,
CN(C)S(=O)(=O)c1ccc(C(=O)Nc2nc3ccccc3[nH]2)cc1,3.4,3.9,.,1.9%,-3.3,
COCCCN(C(=S)Nc1c(C)cc(C)cc1C)C(C)c1ccncc1 (stereo not drawn),7.7,0.7,-22.6,-1.8%,-0.3,
CC(=O)Oc1ccc2c(=O)c(N3C(=O)c4ccccc4C3=O)c(C)oc2c1C,2.0,4.9,.,-7.8%,2.8,
CCCn1c(Nc2cccc(OC)c2)nc2ccccc21,-5.5,.,.,.,0.3,
COc1cc(/C=C/C(=O)OCC(=O)NCc2ccco2)ccc1O,2.1,.,.,.,-0.9,
O=[N+]([O-])c1ccc(/C=N/Nc2nc(NCc3ccccc3)nc(N3CCOCC3)n2)cc1,3.2,-0.5,.,2.5%,-0.6,
CCN(Cc1ccncc1)C(=O)CCc1nnc(CCc2ccccc2OC)o1,-9.4,-0.6,.,-5.9%,3.1,
O=C(NC(=S)Nc1ccccn1)c1cncc(Br)c1,0.9,-1.9,-5.3,9.4%,0.1,
COc1ccc2cc3cc(C(=O)N4CC(C)CC(C)C4)oc3nc2c1 (stereo not drawn),81.9,.,.,.,3.6,

# Structures shown so far that contain fluorine, in the order listed:
SMILES,Mtb betalactam,Arbovirus inh,YopH PTP inh,Mtb growth,RecA intein inh,others
FC(F)(F)Oc1ccc(NC2=NCCCS2)cc1,13.2,.,.,.,-1.5,
CN1CCN(c2ccc(NC(=O)CSc3ccccc3)cc2F)CC1,-3.8,-0.2,-8.5,-14.3%,-2.3,
C=CCNC(=S)N1CCN(c2ncc(C(F)(F)F)cc2Cl)CC1,-3.7,.,.,8.9%,2.4,
COc1cccc(-c2cc(C(F)(F)F)nc(-n3cccn3)n2)c1,-1.6,-6.2,-16.1,-0.6%,2.8,
NC1=C([N+](=O)[O-])C(c2ccc(F)cc2)C2=C(CCCC2=O)O1 (stereo not drawn),-3.6,5.2,-15.8,6.9%,-3.3,

# Following part:
SMILES,Mtb betalactam,Arbovirus inh,YopH PTP inh,Mtb growth,RecA intein inh,others
CCOC(=O)Cn1c(=O)n(Cc2ccccc2)c(=O)c2cccnc21,-2.2,.,.,.,-2.5,
CN(Cc1cccnc1)Cc1cn[nH]c1-c1ccc(-c2ccccc2)cc1,10.5,.,.,55.2%,0.8,
O=C(COC(=O)/C=C/c1cccs1)Nc1ccc2ccccc2c1,86.4,-4.2,-13.1,90.8µM*,0.7,
COC(=O)c1sc2nc(C)nc(SCC(=O)C(C)(C)C)c2c1C,-1.7,4.6,.,.,0.8,
O=C(NCc1ccccc1F)C1CCCN(C(=O)Nc2ccc(F)cc2)C1 (stereo not drawn),1.4,.,.,.,-2.6,
COc1cc(NC(=O)c2cc([N+](=O)[O-])ccc2NC(=O)CN2CCN(c3ccccn3)CC2)cc(OC)c1,0.1,.,.,.,3.3,
O=C1/C(=C/c2ccccc2F)SC(=S)N1CCC(=O)N1CCCCC1CCO (stereo not drawn),73.9,.,.,.,21.9,
COc1ccc(/C=N/NC(=O)c2ccc(COc3ccccc3Cl)o2)c(OC)c1C,1.5,-1.6,-22.2,-8.2%,-0.4,
CCCCCC(=O)Nc1ccccc1N1CCOCC1,5.3,-0.1,-16.9,0.3%,-1.7,
COC(=O)COc1ccc(Oc2nc(SC)nc(N(C)C)n2)nn1,-3.3,4.0,-10.0,-8.8%,-0.7,
O=C1OCCC1Sc1nc2ccccc2c(=O)n1-c1ccc(F)cc1 (stereo not drawn),-2.5,-1.7,.,1.7%,1.0,
COc1ccc(NC2CCCN(C(=O)c3ccc4nccnc4c3)C2)cc1OC (stereo not drawn),-1.1,.,.,.,0.6,
CCN(Cc1ccncc1)C(=O)C(CO)c1ccccc1 (stereo not drawn),90.7,.,.,.,2.2,
CC(=O)c1nn(-c2cccc(Br)c2)cc1C(=O)c1ccco1,6.0,-6.9,3.9,-2.5%,.,
COc1ccccc1C(=O)N/C(=C\c1ccc2c(c1)OCO2)C(=O)NCCc1nc2ccccc2[nH]1,-7.3,-11.3,-21.2,3.2%,1.3,
O=S(=O)(N/N=C1\CC(c2ccccc2)Oc2ccccc21)c1ccccc1 (stereo not drawn),3.1,-11.8,4.8,7.1%,1.9,
CCCOc1ccc(Cl)cc1CN1CCOCC1,38.1,-6.3,-16.5,-3.1%,0.0,
Cc1cc2ncn(S(=O)(=O)N3CCOCC3)c2cc1C,8.9,-0.4,-13.7,-0.1%,-0.8,
Cc1c(N=Cc2ccc(-c3ccc(Cl)cc3)o2)c(=O)n(-c2ccccc2)n1C,97.2,-3.8,-10.4,?,-1.6,
Cc1ccccc1C(=O)N1CCC(C(=O)NCCc2ccc(S(N)(=O)=O)cc2)CC1,2.2,.,.,.,1.5,
Fc1ccc(Oc2ccc3nnc(C(F)(F)F)n3n2)cc1,3.7,3.8,.,4.1%,-0.2,
COc1ccc(C(C(=O)NC2CCCC2)N(C(=O)CNC(=O)c2ccco2)c2cccnc2)cc1 (stereo not drawn),1.3,.,.,.,-1.1,
CCCN1C(=O)C(NC(C)=O)c2cc(OC)ccc21 (stereo not drawn),14.2,2.7,3.1,3.4%,-1.2,
Cc1ccc(C(=O)OCC(=O)N(C)C2CCS(=O)(=O)C2)cc1[N+](=O)[O-] (stereo not drawn),2.6,6.3,.,-4.3%,-1.6,
CCCS(=O)(=O)Nc1cccc(-c2ccc3nnc(C)n3n2)c1,-3.9,-1.4,.,-11.7%,-0.2,
COc1ccc(Cn2c(=O)cc(N)n(-c3ccccc3C)c2=O)cc1,-11.2,.,.,-1.7%,-0.1,
O=C(Cn1cnc2c(nnn2Cc2ccc(F)cc2)c1=O)OCc1ccccc1,-5.8,1.1,-23.9,-4.2%,1.2,
CCOC(=O)c1[nH]ncc1[C@@H]1C[C@H]2CN(Cc3cccc(Cl)c3)C(=O)[C@]23CCCN13,-0.4,.,.,-6.4%,1.4,

# Screening results: PubChem, several laboratories
